Assay outcomes from PubChem.
NOMO-1 viab: STK33 inhibitor candidate reducing NOMO-1 cell viability; NOMO-1 AML viability, CellTiter-Glo luminescence, 72 h; inhibition, % (concentration not given with the values); 7.5% of 37,000 active; AID 2330;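 active = most replicates above 80%; inconclusive = exactly half above 80%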;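 also: wells of about 30 µL received 25 nL stock; 0% = median of vehicle wells and 100% = reference inhibitor level; the first replicate is given; inactives centre near 10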
Active calls of the source: *; ? = inconclusive. Only part of the results is shown, so the mix of outcomes need not match the whole.

SMILES	NOMO-1 viab
C[C@H]1CN([C@@H](C)CO)C(=O)c2cccc(NS(=O)(=O)c3cccs3)c2O[C@@H]1CN(C)Cc1ccccc1	21.6
COc1cc(OC)c(C(=O)NCCCN(C)C)cc1OC	3.4
COc1ccc(S(=O)(=O)Nc2ccc3c(c2)C(=O)N([C@@H](C)CO)C[C@H](C)[C@@H](CN(C)S(C)(=O)=O)O3)cc1	22.8
Cc1noc(C)c1NC(=O)Nc1ccc2c(c1)CC(=O)N([C@@H](C)CO)C[C@@H](C)[C@@H](CN(C)C(=O)NC1CCCCC1)O2	-2.3
C[C@@H]1CN([C@H](C)CO)C(=O)Cc2cc(NS(=O)(=O)c3ccc(Cl)cc3)ccc2O[C@@H]1CN(C)S(=O)(=O)c1ccc(F)cc1	27.0
C[C@@H]1CN([C@H](C)CO)C(=O)Cc2cc(NC(=O)Nc3ccc(F)cc3)ccc2O[C@H]1CN(C)S(=O)(=O)c1ccc(Cl)cc1	2.3
C[C@@H]1CN([C@H](C)CO)C(=O)c2cccc(NC(=O)c3cnccn3)c2O[C@@H]1CN(C)C(=O)Nc1ccc2c(c1)OCO2	-3.5
Cc1cc(O)c(C)c2c1Oc1c(C)c(O)cc(C)c1C(=O)O2	37.6
CCn1c(SCC(=O)Nc2ccccc2C(F)(F)F)nnc1-c1cccc([N+](=O)[O-])c1	-4.9
CSC(=NC#N)/N=c1/nc(SC)n(C)n1C	-5.5
C[C@H]1CN([C@@H](C)CO)C(=O)Cc2cc(NS(C)(=O)=O)ccc2O[C@H]1CN(C)S(=O)(=O)c1cn(C)cn1	-6.0
C[C@H](CO)N1C[C@H](C)[C@@H](CN(C)C)Oc2ccc(NC(=O)Nc3ccc4c(c3)OCO4)cc2C1=O	16.6
Cc1ccc(O)c(NC(=O)CN(C)S(=O)(=O)c2ccc(Cl)cc2)c1	30.8
C[C@H]1CN([C@@H](C)CO)C(=O)Cc2cc(NC(=O)CCCCCC(=O)Nc3ccccc3N)ccc2O[C@@H]1CN(C)Cc1ccc(Cl)c(Cl)c1	92.1*
COc1ccc(S(=O)(=O)N(CC(=O)O)c2ccc(F)cc2)cc1	25.2
Cc1cc(NC(=O)CCCN2C(=O)c3cccc4cccc(c34)C2=O)n(-c2ccccc2)n1	-3.2
c1ccc2[nH]c(CSc3ncnc4sc5c(c34)CCCC5)nc2c1	35.4
C=C1C(=O)O[C@@H]2/C=C(/C)CC/C=C(/C(=O)O)C[C@@H](OC(=O)/C(C)=C/C)C12 (some centres not stated)	38.1
COc1ccc(C(=O)CSc2n[nH]c(-c3ccccc3)n2)cc1[N+](=O)[O-]	8.2
Cc1ccc(NC(=O)c2ccc3c(c2)CCO3)cc1	-9.4
COc1cc2c(cc1NC(=O)CCOc1ccc(C)cc1)oc1ccccc12	4.0
C[C@H](CO)N1C[C@H](C)[C@H](CN(C)Cc2ccccc2)Oc2ccc(NS(=O)(=O)c3ccc(Cl)cc3)cc2CC1=O	?
COc1cccc2cc(C(=O)Nc3sc4c(c3C(N)=O)CCCCC4)c(=O)oc12	6.8
COc1ccc(NC(=O)N(C)C[C@H]2Oc3c(NC(=O)C4CCCCC4)cccc3C(=O)N([C@H](C)CO)C[C@@H]2C)cc1	6.9
CC(C)NC(=O)N(C)C[C@@H]1Oc2c(NC(=O)C3CCOCC3)cccc2C(=O)N([C@H](C)CO)C[C@H]1C	-4.1
Cc1ccc([N+](=O)[O-])c(OCCCCn2cncn2)c1	9.0
C[C@H]1CN([C@@H](C)CO)C(=O)c2cc(NS(=O)(=O)c3cn(C)cn3)ccc2O[C@@H]1CN(C)S(=O)(=O)c1ccccc1	8.9
COC(=O)Nc1ccc2c(c1)N(C(=O)CCN1CCOCC1)c1ccccc1CC2	6.5
COc1cccc(NC(=S)N=S(C)(=O)c2ccccc2)c1 (configuration not stated)	1.8
COc1cc(OC)c(NC(=O)CSc2nnnn2-c2ccccc2)cc1Cl	-6.7
C[C@@H]1CN([C@@H](C)CO)C(=O)c2cc(NC(=O)Nc3ccc(F)cc3)ccc2O[C@@H]1CN(C)Cc1ccc(Oc2ccccc2)cc1	117.5*
C[C@H](CO)N1C[C@H](C)[C@H](CN(C)C(=O)Nc2ccc(C(F)(F)F)cc2)Oc2ccc(NC(=O)Nc3ccc(C(F)(F)F)cc3)cc2CC1=O	114.2*
C[C@H]1CN([C@@H](C)CO)C(=O)c2cc(NS(C)(=O)=O)ccc2O[C@@H]1CN(C)C(=O)Nc1ccc(F)cc1	8.3
C[C@@H]1CN([C@@H](C)CO)C(=O)c2cc(NS(C)(=O)=O)ccc2O[C@H]1CN(C)Cc1ccc2c(c1)OCO2	23.7
CCCOc1ccc(/C(=N\O)C(C)(C)NO)cc1	32.1
O=C(NCc1ccco1)c1cccc(NC(=O)c2ccc(Br)cc2)c1	20.3
C[C@H]1CN([C@@H](C)CO)C(=O)Cc2cc(NS(=O)(=O)c3cn(C)cn3)ccc2O[C@@H]1CN(C)Cc1ccncc1	19.7
Cc1ccc(S(=O)(=O)N(C)C[C@H]2Oc3ccc(NS(=O)(=O)c4cn(C)cn4)cc3C(=O)N([C@@H](C)CO)C[C@@H]2C)cc1	6.5
C[C@@H]1CN([C@H](C)CO)C(=O)c2cccc(NC(=O)CCCCCC(=O)Nc3ccccc3N)c2O[C@H]1CN(C)Cc1ccncc1	8.4
Cc1nn(-c2cc(Cl)ccc2Cl)c(N)c1-c1nc(-c2ccccc2)cs1	27.5
O=C1C(=O)N(CCCn2ccnc2)C(c2cccs2)C1C(=O)c1cc2ccccc2o1 (configuration not stated)	-0.4
CCOC(=O)c1cnc2nc(NCc3ccc(OC)c(OC)c3)[nH]n2c1=O	-6.6
Cc1cc(C(=O)Nc2cccc3c2O[C@@H](CN(C)Cc2ccc(C(=O)Nc4ccccc4N)cc2)[C@@H](C)CN([C@@H](C)CO)C3=O)n(C)n1	65.0
CCn1c(SCC(=O)O)nnc1-c1c[nH]c2ccccc12	8.5
C[C@@H]1CN([C@@H](C)CO)C(=O)c2cc(NC(=O)Cc3cn(C)c4ccccc34)ccc2O[C@H]1CN(C)S(=O)(=O)c1ccc(Cl)cc1	17.9
CC(NS(=O)(=O)c1ccc(Br)cc1)C(=O)Nc1cccc(C(F)(F)F)c1 (configuration not stated)	21.6
C[C@H](CO)N1C[C@H](C)[C@H](CN(C)S(=O)(=O)c2ccc(F)cc2)Oc2c(NC(=O)C3CCOCC3)cccc2C1=O	3.3
Cc1ccc(C(=O)O)cc1S(=O)(=O)N(C)CCO	-5.3
COc1ccc(NC(=O)N(C)C[C@H]2Oc3ccc(NS(=O)(=O)c4cn(C)cn4)cc3C(=O)N([C@@H](C)CO)C[C@@H]2C)cc1	-0.4
C[C@H](CO)N1C[C@H](C)[C@H](CN(C)Cc2ccccc2)Oc2ccc(NS(=O)(=O)c3ccc(F)cc3)cc2C1=O	31.0
C[C@H](CO)N1C[C@H](C)[C@@H](CN(C)C(=O)NC2CCCCC2)Oc2c(NC(=O)c3nc4ccccc4s3)cccc2C1=O	15.0
C[C@H](CO)N1C[C@H](C)[C@H](CN(C)CC2CC2)Oc2c(NC(=O)Nc3ccccc3)cccc2C1=O	8.7
Cn1c(SCC(=O)c2ccc([N+](=O)[O-])cc2)nnc1-c1cc2ccccc2cc1O	47.8
C[C@H](CO)N1C[C@H](C)[C@@H](CN(C)S(=O)(=O)c2cccs2)Oc2c(cccc2N(C)C)C1=O	19.4
CCCc1ccc(-c2cc(C(=O)NCc3cnn(C)c3)c3ccccc3n2)cc1	32.0
C[C@H]1CN([C@@H](C)CO)C(=O)Cc2cc(N(C)C)ccc2O[C@@H]1CN(C)Cc1ccc(Oc2ccccc2)cc1	46.0
C[C@@H]1CN([C@H](C)CO)C(=O)c2cccc(NC(=O)C3CC3)c2O[C@H]1CN(C)S(=O)(=O)c1ccc(Cl)cc1	13.9
C[C@@H]1CN([C@H](C)CO)C(=O)Cc2cc(NC(=O)CCCCCC(=O)Nc3ccccc3N)ccc2O[C@H]1CN(C)S(=O)(=O)c1ccccc1	1.3
COc1ccc(S(=O)(=O)Nc2ccc3c(c2)C(=O)N([C@H](C)CO)C[C@H](C)[C@@H](CN(C)S(=O)(=O)c2ccc(F)cc2)O3)cc1	0.8
O=C(O)CCc1ccc(-c2cccs2)n1Cc1ccco1	26.8

Next part.
SMILES	NOMO-1 viab
N#Cc1cnc(Sc2nnc(-c3ccncc3)n2-c2ccccc2)nc1N	43.6
Cc1ccc(Cn2ncc3c(N4CCN(CCOc5ccc(C)cc5)CC4)ncnc32)cc1	35.2
C[C@H]1CN([C@@H](C)CO)C(=O)c2cccc(NC(=O)Nc3ccccc3)c2O[C@H]1CN(C)CC1CCCCC1	2.3
O=C(CSc1nnnn1-c1ccccc1)Nc1cccc(I)c1	4.8
C[C@H](CO)N1C[C@H](C)[C@H](CN(C)CC2CCCCC2)Oc2ccc(NC(=O)Cc3cn(C)c4ccccc34)cc2CC1=O	?
CCOc1ccc(NC(=O)Cn2c(=O)n(-c3ccc(Cl)cc3)c(=O)c3c4c(sc32)CCC4)cc1	26.0
C[C@H](CO)N1C[C@H](C)[C@H](CN(C)S(=O)(=O)c2ccc(F)cc2)Oc2ccc(NC(=O)Cc3cn(C)c4ccccc34)cc2CC1=O	28.6
COc1cc2c(cc1O)C(=O)CC1C(C)(C)C(=O)CCC21C (configuration not stated)	6.9
O=C1c2ccccc2C(=O)N1CCCc1nc(-c2cccnc2)no1	15.8
C[C@@H]1CCCCO[C@H](CN(C)Cc2ccc(C(=O)Nc3ccccc3N)cc2)[C@@H](C)CN([C@H](C)CO)C(=O)c2cc(NS(=O)(=O)c3ccc(F)cc3)ccc2O1	127.8*
C[C@H]1CN([C@@H](C)CO)C(=O)c2cccc(NS(=O)(=O)c3cn(C)cn3)c2O[C@H]1CN(C)Cc1ccc(C(=O)O)cc1	15.6
Cc1noc(C)c1S(=O)(=O)Nc1cccc2c1O[C@@H](CN(C)Cc1ccc3c(c1)OCO3)[C@@H](C)CN([C@H](C)CO)C2=O	0.7
COc1ccc(S(=O)(=O)N(C)C[C@H]2Oc3c(NC(=O)c4ccc(-c5nccs5)cc4)cccc3C(=O)N([C@@H](C)CO)C[C@@H]2C)cc1	5.1
CC(C)NC(=O)N(C)C[C@H]1OCCCC[C@@H](C)Oc2ccc(NC(=O)Nc3ccc(C(F)(F)F)cc3)cc2C(=O)N([C@H](C)CO)C[C@@H]1C	41.4
COc1ccc(NC(=O)Nc2ccc3c(c2)C(=O)N([C@@H](C)CO)C[C@@H](C)[C@@H](CN(C)C(=O)NC2CCCCC2)O3)cc1	37.0
COc1ccc(NC(=O)N(C)C[C@@H]2Oc3ccc(NC(=O)Cn4cnnn4)cc3CC(=O)N([C@H](C)CO)C[C@H]2C)cc1	-12.8
O=C(NCc1cccnc1)c1cc(-c2cccc(Cl)c2)nc2ccccc12	23.9
C[C@@H]1CN([C@@H](C)CO)C(=O)Cc2cc(NS(=O)(=O)c3cccs3)ccc2O[C@@H]1CN(C)Cc1ccccc1	12.1
C[C@@H]1CN([C@@H](C)CO)C(=O)Cc2cc(NC(=O)Cc3ccccc3)ccc2O[C@@H]1CN(C)S(=O)(=O)c1cn(C)cn1	-1.3
C[C@@H]1CCCCO[C@H](CN(C)S(=O)(=O)c2cn(C)cn2)[C@@H](C)CN([C@H](C)CO)C(=O)c2cc(NC(=O)NC3CCCCC3)ccc2O1	-2.9
CCOC(=O)C1=C(S)N(C#N)C(=O)C(C#N)C12CCNCC2 (configuration not stated)	10.5
Cc1cc(C(F)(F)F)nc(SCC(=O)Nc2cc(C(F)(F)F)ccc2Cl)n1	11.2
O=C(COc1ccccc1[N+](=O)[O-])Nc1ccc2oc(-c3cc(Br)ccc3Cl)nc2c1	?
C[C@H]1CN([C@@H](C)CO)C(=O)c2cc(NS(=O)(=O)c3cn(C)cn3)ccc2O[C@H]1CN(C)Cc1ccc(Oc2ccccc2)cc1	10.4
C[C@@H]1CN([C@@H](C)CO)C(=O)c2cc(N(C)C)ccc2O[C@H]1CN(C)S(=O)(=O)c1ccc(F)cc1	-3.4
C[C@@H]1CCCCO[C@@H](CN(C)CC2CC2)[C@@H](C)CN([C@H](C)CO)C(=O)c2cc(NC(=O)Cc3ccccc3)ccc2O1	31.9
C[C@@H]1CN([C@H](C)CO)C(=O)c2cccc(NS(=O)(=O)c3cn(C)cn3)c2O[C@@H]1CN(C)CC1CC1	-9.3
C[C@@H]1CN([C@H](C)CO)C(=O)c2cccc(NC(=O)CCCCCC(=O)Nc3ccccc3N)c2O[C@H]1CN(C)C(=O)Nc1ccc(C(F)(F)F)cc1	46.1
C[C@H](CO)N1C[C@H](C)[C@@H](CN(C)C(=O)Nc2ccc(F)cc2)Oc2c(NC(=O)c3cnccn3)cccc2C1=O	1.5
C[C@H](CO)N1C[C@H](C)[C@H](CN(C)C(=O)NC2CCCCC2)Oc2ccc(NS(C)(=O)=O)cc2C1=O	-23.8
O=C(O)C1CCCN1C(=O)c1cncc(Br)c1 (configuration not stated)	-10.7
CC(C)NC(=O)Nc1ccc2c(c1)C(=O)N([C@@H](C)CO)C[C@@H](C)[C@H](CN(C)Cc1ccc(Cl)c(Cl)c1)O2	44.5
Cc1noc(C)c1NC(=O)N(C)C[C@H]1Oc2ccc(NS(=O)(=O)c3ccc(F)cc3)cc2C(=O)N([C@@H](C)CO)C[C@@H]1C	20.5
